Rce1 inh = inhibitors of yeast Ras-converting enzyme; AID 2563; yeast membranes, quenched prenylated peptide cleavage fluorescence; Q03530; 0.27% of 290,000 active; calls only;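 active = fall in fluorescence gain of 50% or more versus controls, with final raw signal at or below 3038400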;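 also: plate controls were neutral control wells for no effect and wells lacking membranes for full effect; tested at 10 µM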
Target sequence (Q03530 whole entry, looked up): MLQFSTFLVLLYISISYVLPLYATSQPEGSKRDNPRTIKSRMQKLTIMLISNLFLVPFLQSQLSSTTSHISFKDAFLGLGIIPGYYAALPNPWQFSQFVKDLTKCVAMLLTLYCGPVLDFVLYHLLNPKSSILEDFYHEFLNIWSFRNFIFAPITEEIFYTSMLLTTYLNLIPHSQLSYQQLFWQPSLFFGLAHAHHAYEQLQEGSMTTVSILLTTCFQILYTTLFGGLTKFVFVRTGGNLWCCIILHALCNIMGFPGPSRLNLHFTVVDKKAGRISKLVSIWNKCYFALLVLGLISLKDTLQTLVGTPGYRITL
CSC inhib = blocks cancer stem cells; 1.1% of 300,000 active; inhibition, % at 7.5 µM; cancer stem cell-like cells viability, luminescence;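 active = mean at 75% or more and at least half the replicates too; tested in HMLE shEcad cells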;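 also: 0% = median of negative and 100% = median of positive control wells; the first replicate is given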
Env fusion inh = blocks HIV Env-driven cell-cell fusion; AID 651610; inhibition, % at 12.3 µM; HeLa-JRFL Env/CEM21 cell fusion, luciferase; 1.1% of 360,000 active;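 active = mean replicate inhibition score of at least 50 and every replicate individually at or above 50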;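 also: 0% = plate neutral controls and 100% = maraviroc near 300 nM; one replicate is shown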
PABP polyA inh = PABP-poly(A) binding inhibition. PABP-poly(A) RNA binding, fluorescence polarization. inhibition, % at 35 µM. 1% of 290,000 active. AID 2014;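 active = 50% or more with normal probe brightness, or confirmed in later tests; about a fifth of its hits are not listed in these tables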;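 also: calls also rest on retests at 20 µM and on dose response follow-up; controls were probe without protein and protein plus probe with vehicle; some compounds called inactive have numbers as strong as hits; many hits fall short of the cut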
UUG fidelity = yeast start codon fidelity modulation; activity score, % at 18.7 µM; 0.13% of 350,000 active; S. cerevisiae UUG-firefly luciferase reporter, luminescence/redox ratio; AID 602363;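 active = replicate mean at a twofold rise or more, about +100% in these data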;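 also: firefly luciferase made from a UUG start codon reports start codon fidelity; reporter light over untreated wells divided by growth signal over untreated wells; some hits fall short of that in this replicate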
eIF4H FP inh = inhibitors of RNA binding by human eIF4H; Q15056; eIF4H fluorescence polarization binding assay; inhibition, % at 35 µM; 0.94% of 290,000 active; AID 2012;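 active = 50% or more with normal probe brightness, or confirmed in later tests; about a fifth of its hits are not listed in these tables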;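 also: calls also rest on retests at 20 µM and on dose response follow-up; 0% = protein and probe with vehicle and 100% = probe without protein; strong numbers were not always called active; many hits fall short of the cut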
MT1-MMP act inh = inhibitors of human MT1-MMP activation. AID 651647. 0.061% of 360,000 active. HT1080 RFP-PRO-GFP cells, GFP/RFP ratio fluorescence, overnight; percent of plate control window, DMSO zero. GFP/RFP ratio change, % at 20 µM;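 active = GFP/RFP ratio change of at least 30% with cell ATP level not reduced by more than half and red fluorescence within 50% of control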; also: strong numbers were not always called active
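Assay system: HT1080 RFP-PRO-GFP cells. Benchmarks: DMSO vehicle wells and RFP-L50D-GFP reporter cell wells. Times: overnight cell settling, then overnight compound exposure, 37 °C, 5% CO2. Compound: 20 µM single dose, 1% DMSO. Read-out basis: GFP/RFP fluorescence ratio.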
eIF4H FP inh retest = further read-out of eIF4H FP inh, marked with its call; inhibition, %; compound at 20 µM; confirmation average;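 mean of two retest wells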
PABP polyA inh retest = also measured in PABP polyA inh; calls as there; inhibition, %; compound at 20 µM; confirmation repeats;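 mean of two retest wells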
MT1-MMP act inh RFP = second read-out of MT1-MMP act inh, no call of its own (marks repeat the call); RFP signal change, %; measured here: RFP expression control read;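 0 = vehicle wells; hits needed this value within 50% of zero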
Starred values were filed as active, the others as inactive; i = inactive; · = no result given.

SMILES	Rce1 inh	CSC inhib	Env fusion inh	PABP polyA inh	UUG fidelity	eIF4H FP inh	MT1-MMP act inh	MT1-MMP act inh RFP	others
CCc1cccc(NC(=O)C2CCCN2S(=O)(=O)c2cccc3cccnc23)c1 (stereo not drawn)	i	13	-1	10	-10	-11	6	-5
CC(Oc1ccc(Br)cc1)C(=O)N(Cc1ccccc1)c1c(N)n(Cc2ccccc2)c(=O)[nH]c1=O (stereo not drawn)	·	·	-91	·	-1	·	8	0
O=C(CSc1n[nH]c(=O)n1C1CC1)NCc1ccccc1	i	-2	8	25	-5	1	4	7
COC(=O)C1=C(C)NC2=C(C(=O)CCC2)C1c1cn(Cc2ccc(Br)cc2)nc1-c1ccccc1 (stereo not drawn)	i	25	-9	-3	-4	1	-4	-9
COc1cc(Br)c(Br)cc1N	i	-6	-6	-8	·	3	2	6
CCCS(=O)(=O)N1CCCC(C(=O)Oc2ccc(OC)cc2)C1 (stereo not drawn)	i	14	13	-3	-2	-6	-1	3
CCN1CCN(C(=O)c2ccc(CS(=O)Cc3ccc(C)cc3)o2)CC1 (stereo not drawn)	i	-33	-4	12	0	-2	-1	6
CC(C)(C)c1ccc(/C=C2\Oc3cc(O)ccc3C2=O)cc1	i	48	-3	0	·	-2	-1	-15
O=C(Nc1ncc(Cl)cc1Cl)c1c(F)cccc1Cl	i	·	0	9	·	-1	2	-2
C#CCOC(=O)/C(=C/C=C/c1ccccc1)NC(=O)c1ccccc1	i	2	-13	-8	-12	-3	4	5
Cc1csc(NC(=S)Nc2cccc(Cl)c2)n1	i	79*	3	7	·	21	-27	-31
O=S(=O)(Nc1ccc(O)c(Sc2nc3ccccc3s2)c1)c1ccc(Cl)cc1	i	58	4	0	-14	4	6	-18
Cc1ccc(N=Nc2c(C)[nH]n(C(N)=S)c2=O)cc1C	i	-11	·	-7	·	0	13	9
O=C(Nc1cccc2c1CCCC2)c1ccccc1Cl	i	-9	-10	13	-17	0	-4	-2
O=C(Nc1cccc2cccnc12)c1cccnc1	i	0	·	2	-5	-1	4	1
Cc1ccc2nc(C)c3c(c2c1)N(c1ccccc1)CC3	i	6	1	-7	-6	5	2	2
O=c1c2cc(F)ccc2[nH]c(=S)n1Cc1ccc(F)cc1	i	·	25	-3	7	-5	1	-6
CCc1ccc(NC(=O)CSc2nc3ccsc3c(=O)n2CCC(=O)O)cc1	i	5	-1	13	-15	10	0	3
COC(=O)c1sccc1NC(=O)CSc1nnnn1-c1ccccc1F	i	-4	·	-11	-12	-13	-1	-5
O=C(O)c1csc(Cc2ccccc2)n1	i	1	-6	-8	-12	1	1	2
CC(=O)Nc1ccc(CC#N)cc1	i	-5	15	-2	-21	3	1	2
C=C(C)COc1ccc2oc(C)c(C(=O)OCCOC)c2c1	i	22	-49	0	-3	-2	9	3
CC12CC3CC(C)(C1)CC(C(=O)Nc1nn[nH]n1)(C3)C2	i	·	-21	3	·	-4	-1	1
COc1ccc(OC)c(S(=O)(=O)NCCO)c1	i	-14	·	-4	23	-10	0	-4
O=C(Cc1ccccc1[N+](=O)[O-])OCc1cccc([N+](=O)[O-])c1	i	0	·	10	·	2	·	·

Later entries:
SMILES	Rce1 inh	CSC inhib	Env fusion inh	PABP polyA inh	UUG fidelity	eIF4H FP inh	MT1-MMP act inh	MT1-MMP act inh RFP	others
CC(=O)Nc1ccc(S(=O)(=O)Nc2ccc(Cl)nn2)cc1	i	-14	-4	-6	·	-7	1	1
O=C(CSc1nc2ccccc2nc1N1CCCC1)Nc1ccc(Cl)cc1	i	4	·	8	-14	-13	-3	-2
COc1ccc(NC(=O)c2ocnc2C)cc1OC	i	-13	·	2	-13	-9	2	5
Cc1ccc(-n2nc3c(c2NC(=O)c2cccs2)CS(=O)(=O)C3)cc1	i	-15	2	2	-16	-8	-1	4
CC(C)NC(=O)Nc1cccc(Cl)c1	i	-16	-4	1	-7	7	3	3
CN(Cc1ccccc1)C(=O)c1cnc2n(c1=O)CCS2	i	-3	-20	-2	·	-2	-5	3
COc1ccc(CCN2C(=O)CCC2(C)C(=O)NC2CCCC2)cc1OC (stereo not drawn)	i	-10	9	-11	-15	2	-1	6
CC(=O)OCC1OC(n2ccc(=O)[nH]c2=O)C(O)C1O (stereo not drawn)	i	-2	-25	3	-17	-5	4	6
Oc1c(Cl)cc(Cl)cc1C(C#Cc1ccccc1)N1CCOCC1 (stereo not drawn)	i	35	·	-2	-43	-16	-3	3
COC(CNC(=O)C(C)n1nc(C)c2ccccc21)OC (stereo not drawn)	i	-10	-14	-3	·	-3	-2	2
O=C(CC1S/C(=N\S(=O)(=O)c2ccc(F)cc2)N(c2ccccc2)C1=O)Nc1ccccc1 (stereo not drawn)	i	-8	-17	-1	-10	10	-1	2
COc1ccc(Cc2nc(-c3cccs3)no2)cc1OC	i	-9	-19	-8	-10	-2	-3	-17
CC[N+](CC)(CC)C/C(N)=N/O	i	-13	·	6	-13	2	-5	3
CCN1CCCC1CN(Cc1cc2ccc(C)cc2[nH]c1=O)C(=S)Nc1cccc(OC)c1 (stereo not drawn)	i	8	·	4	-4	-17	0	-1
CC(C)(C)OC(=O)NCc1ccc(NC(=O)c2nc[nH]c2C(=O)Nc2cc(Br)ccc2F)cc1	·	·	-11	·	-14	·	-2	0
COc1cc2c(cc1OC)C(SC)=NC(C)(C)C2	i	-5	·	-17	·	1	3	-1
COc1ccc(NC(=O)c2ccc(COCC(F)(F)C(F)F)cc2)cc1OC	i	-2	·	-1	·	-6	3	-2
C1CC2CN(c3nc4nonc4nc3N3CCSCC3)CCN2C1 (stereo not drawn)	i	-2	7	28	·	60	-23	2	eIF4H FP inh retest=6;PABP polyA inh retest=-8
CC1CCCN(S(=O)(=O)c2ccc(NC(=O)C3CCN(C(=O)c4ccco4)CC3)cc2)C1 (stereo not drawn)	i	-3	0	12	0	-4	3	-4
CCS(=O)(=O)Nc1ccc(Cc2ccc(NS(=O)(=O)CC)cc2)cc1	i	5	·	-1	1	5	1	-12
C[C@H](CO)N1C[C@H](C)[C@@H](CN(C)S(=O)(=O)c2cccs2)Oc2c(NS(=O)(=O)c3ccccc3)cccc2C1=O	·	-3	-10	·	17	·	1	1
C[C@@H]1CCCCO[C@H](CN(C)Cc2ccc(Cl)c(Cl)c2)[C@@H](C)CN([C@H](C)CO)C(=O)c2cc(N(C)C)ccc2O1	·	·	-18	·	5	·	-1	0
CCCCCC(=O)N/N=C/c1ccc([N+](=O)[O-])o1	·	-19	·	0	·	15	-13	0
Cc1ccc(C2CC(c3cccs3)=NN2S(=O)(=O)c2ccc(C)cc2)cc1 (stereo not drawn)	i	·	-7	-12	-16	-13	-4	-5
O=C(CSc1ccc(-c2ccccn2)nn1)c1ccccc1	i	16	-25	-14	·	-3	8	0

Going on with the list.
SMILES	Rce1 inh	CSC inhib	Env fusion inh	PABP polyA inh	UUG fidelity	eIF4H FP inh	MT1-MMP act inh	MT1-MMP act inh RFP	others
CCOc1cccc(CN2CCC(CCC(=O)NC3CC3)CC2)c1O	i	18	3	1	-29	-9	3	-1
COc1cccc(CSc2ccc(S(=O)(=O)N3CCOCC3)cc2C(=O)NCC2CCCO2)c1OC (stereo not drawn)	i	7	7	9	·	5	-1	0
O=C(N/N=C1\C(=O)c2cccc3cccc1c23)c1ccc(O)cc1	i	0	-43	29	·	28	-1	0
Nc1nonc1-n1nnc(C(=O)N/N=C/c2cccc(Cl)c2)c1CSc1ccccc1	·	6	4	0	-22	-3	-1	-2
CC(=O)NCC1CCCN(C(=O)c2oc3c(F)cccc3c2C)C1 (stereo not drawn)	i	8	-4	-5	-5	-12	0	0
Cc1nc2c(cnn2-c2ccccc2Cl)c(=O)n1-c1ccc(N2CCC(C)CC2)cc1	i	20	-63	-3	1	2	-1	-13
Cc1cc(Nc2ccc(F)cc2)nc(N)n1	i	-7	-55	-11	-18	-2	-1	2
O=C1C(=Cc2ccccn2)CCc2ccccc21	·	·	2	·	-42	·	1	-4
CC(=O)Nc1ccc(NC(=O)CSCc2cnn(-c3ccccc3)c2-n2cccc2)cc1	i	10	5	4	-3	7	8	0
Nc1nnnn1/N=C/c1ccccc1OCc1ccc(Cl)cc1	i	1	-36	-9	-13	-4	-6	3
Nc1ccccc1SC1CC(=O)N(c2ccc(Cl)c(Cl)c2)C1=O (stereo not drawn)	i	-3	20	13	-18	-14	5	-1
Cc1cccc(NS(=O)(=O)c2cccc(C(=O)Nc3cccc(C(=O)O)c3)c2)c1	·	-16	5	-1	-4	-13	-4	-5
CC[C@@H](C)C(NC(=O)OC(C)(C)C)c1cn([C@@H](CCC(=O)OC(C)(C)C)C(=O)N2CCN(C(=O)OC(C)(C)C)CC2)nn1 (stereo partly drawn)	i	-11	20	-4	5	1	-8	-10
CCOC(=O)n1c(=O)oc2ccc(Cl)cc21	i	30	-51	0	0	-12	·	·
COc1ccc(C(=O)OCC(=O)NC(C)CCc2ccccc2)cc1 (stereo not drawn)	i	3	26	2	0	-2	-3	1
Cc1ccc(C(=O)N2CCCC(N(C)Cc3ccccc3)C2)s1 (stereo not drawn)	i	-6	15	-5	-15	-3	2	2
CC(C)CC1NC(=O)N(CC(=O)N2CCN(S(=O)(=O)c3ccc(Cl)cc3)CC2)C1=O (stereo not drawn)	i	-8	·	2	-22	-3	-3	2

Part of the list above in order of molar mass, low to high:
SMILES	Rce1 inh	CSC inhib	Env fusion inh	PABP polyA inh	UUG fidelity	eIF4H FP inh	MT1-MMP act inh	MT1-MMP act inh RFP	others
Cc1cc(Nc2ccc(F)cc2)nc(N)n1	i	-7	-55	-11	-18	-2	-1	2
O=C1C(=Cc2ccccn2)CCc2ccccc21	·	·	2	·	-42	·	1	-4
O=C(N/N=C1\C(=O)c2cccc3cccc1c23)c1ccc(O)cc1	i	0	-43	29	·	28	-1	0
Cc1ccc(C(=O)N2CCCC(N(C)Cc3ccccc3)C2)s1 (stereo not drawn)	i	-6	15	-5	-15	-3	2	2
Nc1nnnn1/N=C/c1ccccc1OCc1ccc(Cl)cc1	i	1	-36	-9	-13	-4	-6	3
CC(=O)NCC1CCCN(C(=O)c2oc3c(F)cccc3c2C)C1 (stereo not drawn)	i	8	-4	-5	-5	-12	0	0
COc1ccc(C(=O)OCC(=O)NC(C)CCc2ccccc2)cc1 (stereo not drawn)	i	3	26	2	0	-2	-3	1
CCOc1cccc(CN2CCC(CCC(=O)NC3CC3)CC2)c1O	i	18	3	1	-29	-9	3	-1
Cc1ccc(C2CC(c3cccs3)=NN2S(=O)(=O)c2ccc(C)cc2)cc1 (stereo not drawn)	i	·	-7	-12	-16	-13	-4	-5
Cc1cccc(NS(=O)(=O)c2cccc(C(=O)Nc3cccc(C(=O)O)c3)c2)c1	·	-16	5	-1	-4	-13	-4	-5
Cc1nc2c(cnn2-c2ccccc2Cl)c(=O)n1-c1ccc(N2CCC(C)CC2)cc1	i	20	-63	-3	1	2	-1	-13
CC(=O)Nc1ccc(NC(=O)CSCc2cnn(-c3ccccc3)c2-n2cccc2)cc1	i	10	5	4	-3	7	8	0
Nc1nonc1-n1nnc(C(=O)N/N=C/c2cccc(Cl)c2)c1CSc1ccccc1	·	6	4	0	-22	-3	-1	-2
CC(C)CC1NC(=O)N(CC(=O)N2CCN(S(=O)(=O)c3ccc(Cl)cc3)CC2)C1=O (stereo not drawn)	i	-8	·	2	-22	-3	-3	2
COc1cccc(CSc2ccc(S(=O)(=O)N3CCOCC3)cc2C(=O)NCC2CCCO2)c1OC (stereo not drawn)	i	7	7	9	·	5	-1	0
CC[C@@H](C)C(NC(=O)OC(C)(C)C)c1cn([C@@H](CCC(=O)OC(C)(C)C)C(=O)N2CCN(C(=O)OC(C)(C)C)CC2)nn1 (stereo partly drawn)	i	-11	20	-4	5	1	-8	-10

From PubChem BioAssay

An excerpt, so the mix of outcomes need not match the whole.
